HIV Env fusion: inhibitors of HIV Env-mediated cell fusion; HeLa-JRFL Env/CEM21 cell fusion, luciferase; inhibition, % at 12.3 µM; 1.1% of 360,000 active;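 active = mean replicate inhibition score of at least 50 and every replicate individually at or above 50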;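 note: 0% = plate neutral controls and 100% = maraviroc near 300 nM; one replicate is shown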
UUG fidelity: modulators of start codon recognition fidelity in yeast. 0.13% of 350,000 active. S. cerevisiae UUG-firefly luciferase reporter, luminescence/redox ratio. activity score, % at 18.7 µM;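 active = replicate mean at a twofold rise or more, about +100% in these data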;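 note: firefly luciferase made from a UUG start codon reports start codon fidelity; reporter light over untreated wells divided by growth signal over untreated wells; some hits fall short of that in this replicate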
The depositor's hits bear a star; & = joins results of further samples; [ ] = another dose, or the depositor's remark. An excerpt, so the mix of outcomes need not match the whole.

Each structure is followed by: UUG fidelity	HIV Env fusion
1) COc1ccccc1S(=O)(=O)N[C@H]1CC[C@@H](CC(=O)N2CCN(C)CC2)O[C@@H]1CO
  -23	4[16.7 µM]
2) C[C@@H]1CN([C@@H](C)CO)C(=O)Cc2cc(NS(=O)(=O)c3ccc(F)cc3)ccc2O[C@@H]1CN(C)C(=O)Nc1cccc2ccccc12
  3	-3[16.7 µM]
3) CC(=O)Nc1ccc2c(c1)C(=O)N(C)[C@H]1CC[C@H](CC(=O)Nc3ccc(Cl)cc3)O[C@@H]1CO2
  13	3[16.7 µM]
4) C[C@@H]1CN([C@@H](C)CO)C(=O)c2cc(C3=CCCCC3)cnc2O[C@@H]1CN(C)C(=O)c1ccc(F)cc1
  20	12[16.7 µM]
5) C[C@@H]1CN([C@H](C)CO)C(=O)Cc2cc(NC(=O)CCCCCC(=O)Nc3ccccc3N)ccc2O[C@@H]1CN(C)S(C)(=O)=O
  3	9[16.7 µM]
6) C[C@H](CO)N1C[C@H](C)[C@@H](CN(C)Cc2ccc3c(c2)OCO3)Oc2ccc(NC(=O)Nc3ccc(C(F)(F)F)cc3)cc2C1=O
  6	7[16.7 µM]
7) C/C=C/c1ccc2c(c1)O[C@@H](CN(C)Cc1ccccc1)[C@@H](C)CN([C@H](C)CO)S2(=O)=O
  -8	29[16.7 µM]
8) O=C(N[C@@H]1CC[C@@H](CCNS(=O)(=O)c2ccc(Cl)cc2)O[C@@H]1CO)c1cccc(F)c1
  7	-6[16.7 µM]
9) C[C@H]1CN([C@@H](C)CO)C(=O)Cc2cc(NC(=O)CCN3CCOCC3)ccc2O[C@@H]1CN(C)C(=O)NC1CCCCC1
  -3	0[16.7 µM]
10) CC(C)NC(=O)Nc1ccc2c(c1)C(=O)N([C@@H](C)CO)C[C@@H](C)[C@H](CN(C)C(=O)Nc1ccc(F)cc1)O2
  -16	-5[16.7 µM]
11) COc1ccc(NC(=O)Nc2ccc3c(c2)C(=O)N([C@H](C)CO)C[C@H](C)[C@H](CN(C)C(=O)NC(C)C)O3)cc1
  -3	-7[16.7 µM]
12) CN(C)CC(=O)N[C@H]1CC[C@H](CCNS(=O)(=O)c2ccccc2)O[C@@H]1CO
  -4	-5[16.7 µM]
13) COCC#Cc1cnc2c(c1)C(=O)N([C@H](C)CO)C[C@H](C)[C@H](CN(C)C(=O)C1CCCCC1)O2
  2	-11[16.7 µM]
14) O=C(C[C@H]1C=C[C@H](NS(=O)(=O)c2ccc(F)cc2)[C@H](CO)O1)NCc1ccc(Cl)c(Cl)c1
  -2	-9[16.7 µM]
15) CCC(=O)N(C)C[C@H]1Oc2ncc(C#Cc3ccccc3)cc2C(=O)N([C@@H](C)CO)C[C@@H]1C
  -8	5[16.7 µM]
16) C[C@H](CO)N1C[C@H](C)[C@@H](CN(C)C(=O)Nc2ccccc2)Oc2c(NC(=O)C3CC3)cccc2C1=O
  -10	6[16.7 µM]
17) CCC(=O)N[C@H]1C=C[C@H](CC(=O)NCC2CCCCC2)O[C@@H]1CO
  4	12[16.7 µM]
18) C[C@@H]1CN([C@@H](C)CO)C(=O)c2cc(C#Cc3ccccc3)cnc2O[C@H]1CN(C)S(=O)(=O)c1ccccc1F
  21	4[16.7 µM]
19) CC(C)NC(=O)N[C@H]1C=C[C@@H](CC(=O)NCCN2CCCC2)O[C@@H]1CO
  -18	7[16.7 µM]
20) C[C@@H]1CN([C@@H](C)CO)C(=O)c2cc(NS(=O)(=O)c3cccs3)ccc2O[C@@H](C)CCCCO[C@@H]1CN(C)C(=O)Nc1ccc2c(c1)OCO2
  3	-14[16.7 µM]
21) C[C@H](CO)N1C[C@H](C)[C@H](CN(C)S(=O)(=O)c2ccc(F)cc2)OCCCC[C@H](C)Oc2ccc(NC(=O)C3CCCCC3)cc2C1=O
  8	-204[16.7 µM]
22) O=C(CCN1CCCCC1)NCC[C@H]1CC[C@H](NC(=O)Nc2ccc(Cl)cc2)[C@H](CO)O1
  10	-3[16.7 µM]
23) C[C@@H]1CCCCO[C@@H](CN(C)Cc2ccc(C(=O)O)cc2)[C@@H](C)CN([C@@H](C)CO)C(=O)c2cc(NC(=O)c3ccncc3)ccc2O1
  7	-20[16.7 µM]
24) C[C@@H]1CN([C@H](C)CO)C(=O)c2cc(-c3ccccc3)cnc2O[C@H]1CN(C)C(=O)C1CCCCC1
  -1	3[16.7 µM]
25) COc1ccc(NC(=O)N[C@@H]2CC[C@@H](CCn3cc(C4(O)CCCC4)nn3)O[C@@H]2CO)cc1
  -7	6[16.7 µM]
26) C[C@H]1CN([C@@H](C)CO)C(=O)c2cccc(NS(=O)(=O)c3ccc(F)cc3)c2O[C@H]1CN(C)Cc1ccc(C(F)(F)F)cc1
  -16	-35[16.7 µM]
27) C[C@@H]1CCCCO[C@@H](CN(C)C(=O)Nc2cccc3ccccc23)[C@H](C)CN([C@H](C)CO)C(=O)c2cc(NC(=O)Cc3ccccc3)ccc2O1
  1	-72[16.7 µM]
28) COc1ccc(S(=O)(=O)Nc2ccc3c(c2)C(=O)N([C@H](C)CO)C[C@H](C)[C@H](CN(C)S(=O)(=O)c2ccc(Cl)cc2)OCCCC[C@@H](C)O3)cc1
  5	-54[16.7 µM]
29) O=C(C[C@@H]1C[C@H]2c3cc(NC(=O)Cc4ccncc4)ccc3O[C@H]2[C@@H](CO)O1)NCc1cccnc1
  10	-5[16.7 µM]
30) C[C@H](CO)N1C[C@H](C)[C@@H](CN(C)Cc2cncnc2)Oc2ncc(/C=C/c3ccccc3)cc2C1=O
  250*	-5[16.7 µM]

Some of these compounds in order of SMILES length, ascending:
Each structure is followed by: UUG fidelity	HIV Env fusion
12) CN(C)CC(=O)N[C@H]1CC[C@H](CCNS(=O)(=O)c2ccccc2)O[C@@H]1CO
  -4	-5[16.7 µM]
1) COc1ccccc1S(=O)(=O)N[C@H]1CC[C@@H](CC(=O)N2CCN(C)CC2)O[C@@H]1CO
  -23	4[16.7 µM]
13) COCC#Cc1cnc2c(c1)C(=O)N([C@H](C)CO)C[C@H](C)[C@H](CN(C)C(=O)C1CCCCC1)O2
  2	-11[16.7 µM]
3) CC(=O)Nc1ccc2c(c1)C(=O)N(C)[C@H]1CC[C@H](CC(=O)Nc3ccc(Cl)cc3)O[C@@H]1CO2
  13	3[16.7 µM]
18) C[C@@H]1CN([C@@H](C)CO)C(=O)c2cc(C#Cc3ccccc3)cnc2O[C@H]1CN(C)S(=O)(=O)c1ccccc1F
  21	4[16.7 µM]
9) C[C@H]1CN([C@@H](C)CO)C(=O)Cc2cc(NC(=O)CCN3CCOCC3)ccc2O[C@@H]1CN(C)C(=O)NC1CCCCC1
  -3	0[16.7 µM]
6) C[C@H](CO)N1C[C@H](C)[C@@H](CN(C)Cc2ccc3c(c2)OCO3)Oc2ccc(NC(=O)Nc3ccc(C(F)(F)F)cc3)cc2C1=O
  6	7[16.7 µM]
23) C[C@@H]1CCCCO[C@@H](CN(C)Cc2ccc(C(=O)O)cc2)[C@@H](C)CN([C@@H](C)CO)C(=O)c2cc(NC(=O)c3ccncc3)ccc2O1
  7	-20[16.7 µM]
28) COc1ccc(S(=O)(=O)Nc2ccc3c(c2)C(=O)N([C@H](C)CO)C[C@H](C)[C@H](CN(C)S(=O)(=O)c2ccc(Cl)cc2)OCCCC[C@@H](C)O3)cc1
  5	-54[16.7 µM]

Additional records.
Each structure is followed by: UUG fidelity	HIV Env fusion
31) CC(C)CC#Cc1cnc2c(c1)C(=O)N([C@@H](C)CO)C[C@H](C)[C@@H](CN(C)C(=O)c1cccnc1)O2
  32	-2[16.7 µM]
32) CO[C@@H]1CN(C)C(=O)c2ccc(NC(=O)NC(C)C)cc2OC[C@H](C)N(C(=O)CN(C)C)C[C@@H]1C
  20	-8[16.7 µM]
33) COc1ccc(NC(=O)Nc2ccc3c(c2)C(=O)N([C@H](C)CO)C[C@@H](C)[C@@H](CN(C)C)OCCCC[C@@H](C)O3)cc1
  -3	2[16.7 µM]
34) N#C[C@@H]1[C@@H](c2ccc(/C=C/c3ccccc3)cc2)[C@@H](CO)N1C(=O)C1CC1
  5	-13[16.7 µM]
35) CCCC#Cc1ccc2c(c1)O[C@H](CN(C)C(=O)c1cnccn1)[C@@H](C)CN([C@H](C)CO)S2(=O)=O
  18	-12[16.7 µM]
36) CC(=O)N(C)C[C@H]1Oc2cc(C#CCC(C)C)ccc2S(=O)(=O)N([C@H](C)CO)C[C@H]1C
  10	33[16.7 µM]
37) CCCNC(=O)C[C@@H]1C[C@@H]2c3cc(NC(=O)NC4CCCC4)ccc3O[C@@H]2[C@H](CO)O1
  -6	6[16.7 µM]
38) CN1C(=O)c2cc(NC(=O)Nc3ccccc3Cl)ccc2OC[C@@H]2O[C@@H](CC(=O)O)CC[C@H]21
  -11	22[16.7 µM]
39) C[C@H]1CN([C@@H](C)CO)S(=O)(=O)c2ccc(C#CC3CC3)cc2O[C@@H]1CN(C)Cc1ccncc1
  -6	12[16.7 µM]
40) C[C@H]1CN([C@@H](C)CO)S(=O)(=O)c2ccc(-c3cccnc3)cc2O[C@@H]1CN(C)CC1CC1
  3	-6[16.7 µM]
41) O=C(N[C@H]1CC[C@@H](CCNS(=O)(=O)c2cccc(Cl)c2)O[C@H]1CO)c1ccc(F)cc1
  7	-19[16.7 µM]
42) COc1ccc(S(=O)(=O)N(C)C[C@H]2Oc3c(NC(=O)Nc4cccc5ccccc45)cccc3C(=O)N([C@@H](C)CO)C[C@H]2C)cc1
  -2	41[16.7 µM]
43) COc1ccc(NC(=O)N(C)C[C@H]2Oc3c(NC(=O)C4CCCCC4)cccc3C(=O)N([C@H](C)CO)C[C@H]2C)cc1
  0	-16[16.7 µM]
44) C[C@H](CO)N1C[C@H](C)[C@H](CN(C)Cc2ccc(C(=O)O)cc2)OCCCC[C@H](C)Oc2ccc(NC(=O)Nc3ccc(F)cc3)cc2C1=O
  5	8[16.7 µM]
45) C[C@@H]1CCCCO[C@H](CN(C)C(=O)C2CCCCC2)[C@H](C)CN([C@H](C)CO)C(=O)c2cc(NC(=O)NC3CCCCC3)ccc2O1
  -6	-21[16.7 µM]
46) O=S(=O)(N[C@H]1CC[C@H](CCn2cc(-c3cccnc3)nn2)O[C@H]1CO)c1ccc(F)cc1
  25	-6[16.7 µM]
47) O=C(N[C@H]1CC[C@@H](CCNC(=O)c2ccccc2F)O[C@H]1CO)c1ccc2c(c1)OCO2
  -1	-3[16.7 µM]
48) CN(C)C(=O)C[C@@H]1C=C[C@H](NC(=O)Nc2cccc(F)c2)[C@@H](CO)O1
  16	3[16.7 µM]
49) Cc1ccc(S(=O)(=O)N(C)C[C@H]2Oc3c(NS(=O)(=O)c4ccc(F)cc4)cccc3C(=O)N([C@@H](C)CO)C[C@@H]2C)cc1
  42	-53[16.7 µM]
50) COc1ccccc1S(=O)(=O)N(C)C[C@@H]1Oc2cc(C#CCC3CCCC3)ccc2S(=O)(=O)N([C@H](C)CO)C[C@H]1C
  -9	35[16.7 µM]
51) C[C@@H](NC(=O)C[C@H]1C=C[C@@H](NC(=O)C2CC2)[C@@H](CO)O1)c1ccccc1
  -3	-18[16.7 µM]
52) C[C@H]1CN([C@@H](C)CO)C(=O)c2cccc(NS(=O)(=O)c3ccc(F)cc3)c2O[C@@H]1CN(C)Cc1ccccc1
  9	-30[16.7 µM]
53) CCCC(O)C#Cc1cnc2c(c1)C(=O)N([C@H](C)CO)C[C@H](C)[C@H](CN(C)Cc1ccc3c(c1)OCO3)O2 (stereo partly drawn)
  -7	7[16.7 µM]
54) Cc1noc(C)c1S(=O)(=O)Nc1ccc2c(c1)C(=O)N([C@H](C)CO)C[C@@H](C)[C@@H](CN(C)S(=O)(=O)c1cn(C)cn1)O2
  -15	-6[16.7 µM]
55) C[C@H](CO)N1C[C@H](C)[C@H](CN(C)S(C)(=O)=O)Oc2ccc(NC(=O)Cc3ccccc3)cc2C1=O
  -2	13[16.7 µM]
56) CCCN(C)C[C@H]1Oc2cc(Br)ccc2S(=O)(=O)N([C@H](C)CO)C[C@H]1C
  -3	-11[16.7 µM]
57) CCC(=O)N(C)C[C@H]1Oc2ncc(-c3ccccc3F)cc2C(=O)N([C@H](C)CO)C[C@H]1C
  -5	-23[16.7 µM]
58) COc1ccc(CN(C)C[C@H]2Oc3ccc(NC(=O)Nc4ccc(C(F)(F)F)cc4)cc3CC(=O)N([C@H](C)CO)C[C@H]2C)cc1
  -6	21[16.7 µM]
59) O=C(Nc1cc(F)ccc1F)N[C@@H]1CC[C@H](CCn2cc(C3CCCCC3)nn2)O[C@@H]1CO
  2	-5[16.7 µM]
60) CCCNC(=O)N1C[C@H](O)COC[C@H]2O[C@@H](CC(=O)NCCCN3CCOCC3)CC[C@@H]21
  3	5[16.7 µM]

Next results
Each structure is followed by: UUG fidelity	HIV Env fusion
61) O=C(C[C@@H]1C=C[C@@H](NC(=O)C2CCC2)[C@@H](CO)O1)Nc1nccs1
  -15	7[16.7 µM]
62) Cc1ccc(S(=O)(=O)N[C@H]2CC[C@H](CCn3cc(C4CCCC4)nn3)O[C@@H]2CO)cc1
  11	5[16.7 µM]
63) COc1ccc(CNC(=O)C[C@@H]2CC[C@H](NC(=O)c3cccc(F)c3)[C@@H](CO)O2)cc1
  5	8[16.7 µM]
64) CNC(=O)C[C@H]1CC[C@H]2[C@H](COc3ccc(NC(=O)c4cccc(F)c4)cc3C(=O)N2C)O1
  -14&-18	4&-21[16.7 µM]
65) C[C@H]1CN([C@@H](C)CO)C(=O)c2cc(Br)cnc2O[C@H]1CN(C)C(=O)c1ccccc1F
  25	-16[16.7 µM]
66) C[C@@H]1CCCCO[C@H](CN(C)C(=O)NC2CCCCC2)[C@H](C)CN([C@H](C)CO)C(=O)c2cc(NC(=O)Nc3cccc4ccccc34)ccc2O1
  2	-4[16.7 µM]
67) N#C[C@@H]1[C@H](c2ccc(-c3ccc(F)cc3)cc2)[C@H](CO)N1C(=O)Cc1ccccc1
  1	19[16.7 µM]

Screening results deposited in PubChem by Broad Institute.
